TDP1 cell CPT: qHTS for Inhibitors of human tyrosyl-DNA phosphodiesterase 1 (TDP1): qHTS in cells in presence of CPT | chicken DT40 Tdp1-/-;hTDP1 cells + 20 nM CPT, ATP luminescence, 48 h | Potency, µM (titrated, usually from 46.2 µM), for the others: top-dose activity change, negative = growth inhibition, actives largely listed as inhibitors | 12% of 420,000 active; further: nearly all actives have a fitted effect of over 55% in size
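Chicken DT40 Tdp1-/- cells complemented with human TDP1, 400 cells/well, exposed to compounds plus 20 nM camptothecin for at least 48 h at 37 C; viability read as ATP content by CellTiter-Glo luminescence.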
N370S GC mod: qHTS Assay for Inhibitors and Activators of N370S glucocerebrosidase as a Potential Chaperone Treatment of Gaucher Disease. AID 2101, 2009. Potency, µM (highest dose often 59.4 µM), without a hit: top-dose activity change, negative = inhibition, most hits filed as inhibitors. 0.092% of 330,000 active. N370S GC spleen homogenate, 4MU-glucoside fluorescence;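 further: 0% = full enzyme activity and -100% = no enzyme basal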
The depositor's hits bear a star; ? = inconclusive; / = no result given; [ ] = another dose, or the depositor's remark. The call rests on the fitted dose curve; in most records, active means well fitted curve in the direction sought with a large enough effect; inconclusive means small, poorly fitted or top-dose-only effect, or another doubt; inactive means no such curve, though single readings can be large; an effect the other way counts as inactive or inconclusive. Unless noted, on the % scale 0 is the no-effect control and ±100 the full control effect; potency means the concentration at half of the fitted maximal effect. The list is partial; most or all hits stand in other tables.

compound	TDP1 cell CPT	N370S GC mod
O=C(Cc1cccs1)N1CCN=C1SCc1ccc(F)cc1	7%	5%
O=C(Nc1n[nH]c(C(F)(F)F)n1)C1CC1	-5%	1%
CC(C)CC(C(=O)OCC(=O)c1c(N)n(C)c(=O)n(C)c1=O)N1C(=O)c2ccccc2C1=O (stereo not given)	?	8%
Cn1nccc1C(=O)Nc1ccc2c(c1)OCCO2	?	3%
CC(C)c1onc(C(=O)NCc2cccs2)c1[N+](=O)[O-]	?	8%
CCCCOc1cccc(C(=O)N(Cc2cccs2)C2CCS(=O)(=O)C2)c1 (stereo not given)	?	7%
N#C/C(=C\c1ccc(OCC(N)=O)cc1)C(=O)NC1CC1	-13%	-11%
COc1ccc(N2C(=O)CCC2(C#N)c2ccc(OC)cc2)cc1 (stereo not given)	-22%	1%
CCOC(=O)C1=C(c2ccccc2)NC(=O)NC1c1ccc(O)c(OCC)c1 (stereo not given)	-12%	1%
c1ccc(OCc2nn3c(Cn4cnc5ccccc54)nnc3s2)cc1	16µM*	0%
CC(=O)c1cccc(Nc2nc(N3CCOCC3)nc(N3CCOCC3)n2)c1	?	1%
COc1ccc(NC(=O)c2c(C)nn(Cc3ccccc3)c2Cl)cc1S(=O)(=O)N1CCOCC1	-30%	-19%
CCCCNC(=S)N1CCN(C)CC1	-1%	1%
COc1ccc(CCC(=O)Nc2cc3c4c(c2)CCC(=O)N4CCC3)cc1	-14%	-1%
Cc1cnc(C(=O)OCc2c(C)cc(C(C)(C)C)cc2C)cn1	-22%	2%
CCOC(=O)c1ccc(NC(=O)c2ccccc2N(C)S(=O)(=O)c2ccccc2)cc1	18µM*	-11%
CN(C)CCOc1cccc(Cl)c1	1%	-13%
CC(Oc1cccc(NC(=O)c2cccs2)c1)C(=O)c1ccccc1 (stereo not given)	-2%	14%
O=C(c1cc2ccccc2oc1=O)N1CCOCC1	-17%	10%
O=C(c1cccs1)N1CCN(S(=O)(=O)c2cccs2)CC1	-10%	5%
CCN(CC)C(=O)c1ccc2c(c1)nnn2C	0%	-1%
COC(=O)c1ccc([N+](=O)[O-])cc1N1C(=O)C2C3CCC(C3)C2C1=O (stereo not given)	-25%	10%
CC(=O)c1ccc(OCCn2c(SCC(=O)O)nc3ccccc32)cc1	4%	-7%
COc1cnc(N(C)C)nc1Sc1cccc(Cl)c1	?	-2%
CNC(=O)C1CC(=O)N(c2ccc(OCC(=O)N3CCCC3)cc2)C1 (stereo not given)	?	-3%
O=C(CSc1nnc(-c2ccc(F)cc2)o1)NC1CCCCC1	-1%	2%
Cn1ccnc1Sc1ccc(/C=N/NC(=O)c2ccccc2[N+](=O)[O-])cc1[N+](=O)[O-]	?	-1%
Cn1ccnc1C(=O)C1CCCN(Cc2cn[nH]c2-c2ccc(-c3ccccc3)cc2)C1 (stereo not given)	?	-6%
CCOC(=O)C1=C(C)NC(C)=C(C(=O)OCC)C1C(=O)OCC(=O)NC(C)C	?	7%
COc1ccc(N(CC(=O)NCCSc2ccc(C)cc2)S(=O)(=O)c2ccccc2)c(OC)c1	?	1%
COc1cc(S(=O)(=O)NC2CCCCC2C)ccc1F (stereo not given)	-28%	-22%
O=S(=O)(NCC(c1cccnc1)N1CCc2ccccc2C1)c1ccccc1 (stereo not given)	7%	4%
COc1ccc(C(CNC(=O)C2CC2)N(C)C)cc1 (stereo not given)	-1%	-1%
COc1cc2c(cc1OC)C(C)N(C(C)=O)CC2 (stereo not given)	-5%	-5%
C=CCSc1n[nH]c(-c2ccc(OCCC)cc2)n1	29µM*	8%
CCNC(=O)Cn1c(=O)c2c(ncn2Cc2ccccc2)n(Cc2ccccc2)c1=O	?	10%
Clc1cccc(CN2CCCCCC2)c1Cl	-16%	-3%
O=C1CCC(C(=O)N2CCCCCC2)CN1Cc1cccc(C(F)(F)F)c1 (stereo not given)	-18%	-1%
CCNc1nc(SC(C)C(=O)OC)nc(N(C)C)n1 (stereo not given)	-7%	-19%
O=C(CCC1CCCCC1)NCCN1CCOCC1	10%	-10%
COc1ccc(C(=O)N2CC3(C)CC2CC(C)(C)C3)cc1 (stereo not given)	?	-9%
Cc1ccnc(NC(c2ccncc2)c2c(C)[nH]c3ccccc23)c1 (stereo not given)	-28%	-4%
CCN(CC(=O)NC(=O)NC1CCCCC1)Cc1ccccc1	-16%	-1%
N/C(Cc1ccc(Cl)cc1Cl)=N\OC(=O)c1ccc(Br)o1	4%	?
Cc1ccccc1C(=O)N1CCCCC1CCN1CCCCC1 (stereo not given)	4%	/
Cc1cc(C)c(C)c(S(=O)(=O)NCc2ccncc2)c1C	21µM*	-5%
CCOc1ccc2[nH]cc(S(=O)(=O)c3ccc(C)cc3)c(=O)c2c1	?	-1%
CC1Cc2cc(S(=O)(=O)N3CCC(C(=O)Nc4ccccn4)CC3)ccc2N1C(=O)C1CCC1 (stereo not given)	18µM*	-5%
O=C(COC(=O)C1CCN(c2ccc(C(F)(F)F)cn2)CC1)Nc1ccc(Cl)cc1	14%	-2%
Cc1ccc(OCC(=O)Nc2ccc(CN3CCOCC3)cc2)cc1	-21%	-4%
O=S(=O)(c1ccc(Br)cc1)N1CCN(c2ccc3nnc(-c4ccccc4)n3n2)CC1	18µM*	-3%
COc1ccc(C(=O)C2CCCN(S(=O)(=O)N(C)C)C2)c(C)c1 (stereo not given)	-1%	-4%
O=C(CCc1ccccc1)Nc1ccc(NC(=O)c2ccco2)cc1	-9%	3%
COc1ccc(-c2noc(CSc3ccc(C)cc3)n2)cc1	-20%	-1%
Cc1ccccc1NS(=O)(=O)c1cc(C(=O)NCc2ccncc2)ccc1Cl	-5%	-8%
CC(C)Oc1ccc(S(=O)(=O)N2CCCCC2)cc1NC(=O)C1CCC1	?	2%
CCn1c(SC(C)C(=O)NC2CCCc3ccccc32)nnc1-c1cccs1 (stereo not given)	-10%	-1%
CSc1cccc(N=C2C(=O)Nc3ccccc32)c1	-10%	0%
COc1ccc(CNC(=O)NC2CCCCC2)cc1	-4%	2%
O=C(NCC(c1cccnc1)N1CCN(c2ccccc2F)CC1)C1CCCCC1 (stereo not given)	?	0%

Additional records
compound	TDP1 cell CPT	N370S GC mod
Nc1ccccc1C(=O)NCC1(c2ccccc2)CCCC1	?	-1%
CCCNC(=O)c1c[nH]c2ccc(S(=O)(=O)N(C)c3ccc(OCC)cc3)cc2c1=O	?	-5%
CC(=O)NC1=NN(C(C)=O)C(c2cccs2)S1 (stereo not given)	-1%	0%
O=C1CCCN1c1nccs1	-7%	1%
Cc1cc(-c2nnc(SCC(=O)Nc3ccc(C)c(C)c3)n2N)n[nH]1	3%	-6%
Cc1ccc(NC(=O)CN(C)S(=O)(=O)c2ccc3c(c2)n(C)c(=O)c(=O)n3C)c(C)c1	18µM*	0%
Cc1cc(C)cc(C(=O)NC(CC(N)=O)c2ccc(N3CCCCCC3)c([N+](=O)[O-])c2)c1 (stereo not given)	-22%	-1%
CC(=O)C1C(c2cccc(Oc3ccccc3)c2)NC(=O)NC1(O)C(F)(F)F (stereo not given)	-14%	2%
O=C(Nc1cccc(F)c1)NC1CC2CCCC(C1)N2C1CC1 (stereo not given)	?	-2%
CCN(CC)CCNC(=O)c1c(C)n(-c2ccccc2)c2cc(Br)c(OC)cc12	?	?
CC(/C=C/c1ccco1)=N\NC(=O)c1cccnc1	-3%	-3%
Cc1ccc(N2C(=O)C3NN=C(C(=O)OCc4ccccc4)C3C2=O)cc1 (stereo not given)	31%[activator]	-16%
CCOC(=O)c1sc2nc(C)cc(-c3ccccc3)c2c1N	?	21%
CCOC(=O)c1cc2sc(C)cc2n1CC(=O)N1CCOCC1	-14%	4%
O=C(c1cccn2c(=O)c3ccc(Cl)cc3nc12)N1CCN(Cc2ccc3c(c2)OCO3)CC1	?	-2%
Cc1ccc(CNC(=O)[C@H](C)N2C(=O)N3CCc4c([nH]c5ccccc45)[C@@]3(C)C2=O)cc1	?	-4%
COc1ccc(C(=O)Nc2nnc(Cc3ccc(OC)c(OC)c3)s2)c(OC)c1	12%	-2%
CCCn1c(C)cs/c1=N\C(=S)Nc1ccccc1	?	4%
CC(C)(C)c1ccc(C(=O)c2c[nH]c(C(=O)NCCCN3CCOCC3)c2)cc1	?	0%
CCOc1ccc(CCNC(=O)C2CCN(c3nnc(-n4cccc4)s3)CC2)cc1	10%	4%
N#CC1=C(N)Oc2cc(N)ccc2C1C1CCCCC1 (stereo not given)	?	-2%
CN(C)S(=O)(=O)c1cccc(NC(=O)COC(=O)c2c[nH]c(=O)[nH]c2=O)c1	3%	7%
Cc1ccc(C(=O)COC(=O)CNC(=O)Cc2ccccc2)cc1	11%	1%
Cc1c(N=C2SCC(=O)N2/N=C\c2ccc(Br)cc2)c(=O)n(-c2ccccc2)n1C	-8%	6%
Cc1nc([N+](=O)[O-])c(Sc2nc3ccc([N+](=O)[O-])cc3[nH]2)n1Cc1ccccc1	9.2µM*	4%
CC1c2cc3c(cc2CCN1C(=O)c1ccc(C(F)(F)F)cc1)OCCCO3 (stereo not given)	?	2%
CCCCNC(=O)C1CC(c2c(Cl)cccc2Cl)=NO1 (stereo not given)	9.2µM*	3%
Cc1ccc(NC(=S)NCc2ccc3c(c2)OCO3)cc1C	0%	6%
Cc1ccc(N(CC(=O)N2CCN(c3ccc(F)cc3)CC2)S(=O)(=O)c2c(C)nn(C)c2C)cc1	?	-1%
O=C(Nc1ccccc1)c1cc(S(=O)(=O)Nc2cccnc2)ccc1Cl	-6%	-3%

Rewritten with each value named: part of the list above
Structure: CC(C)(C)c1ccc(C(=O)c2c[nH]c(C(=O)NCCCN3CCOCC3)c2)cc1
  TDP1 cell CPT = ? | N370S GC mod = 0%

Structure: CCOc1ccc(CCNC(=O)C2CCN(c3nnc(-n4cccc4)s3)CC2)cc1
  TDP1 cell CPT = 10% | N370S GC mod = 4%

Next results:
compound	TDP1 cell CPT	N370S GC mod
CC(C)(C)c1ccc(C(=O)Nn2cnnc2)cc1	12%	1%
CCc1nnc(NC(=O)CSc2ccc(-c3ccc(C)cc3)nn2)s1	-26%	4%
CCOC(=O)Cc1csc(NC(=O)c2sc3nc4ccc(CC)cc4cc3c2N)n1	-25%	1%
CCCSc1ccc(C(=O)Nc2ccc(Cl)cc2)cn1	-26%	5%
NC(=O)Nc1ccc(C(=O)OCC(=O)c2c[nH]c3ccccc23)cc1	-8%	/
COc1ccc(N2C(=O)CC(SCc3ccc(Cl)cc3)C2=O)cc1 (stereo not given)	10%	-6%
Cc1ccc2ccc[n+](Cc3ccccc3)c2c1	16µM*	-1%
Cc1ccc(-c2c[n+](=O)c3c(n2[O-])CCC3)cc1	9%	-17%
CCC(C)(C)n1nnnc1C(c1ccncc1)N1CCC(Cc2ccccc2)CC1 (stereo not given)	?	-4%
COc1ccc(/C=C/C(=O)Nc2nc(C)c(C(=O)N(C)C)s2)cc1	13%	-7%
CCCCNC(=O)c1ccc2c(c1)N(CC)C(=O)CS2	-4%	3%
CC1CCCN(C(=O)CSc2nnc(-c3ccc(O)cc3)o2)C1 (stereo not given)	?	-3%
c1ccc2nc3[nH]cnc3nc2c1	-1%	5%
O=C(/C(C=Nc1cccc(C(F)(F)F)c1)=C(/O)c1ccco1)C(F)(F)F	7%	17%

14 entries from above, with values under each structure.
Values run as follows: TDP1 cell CPT, N370S GC mod
- CC(C)(C)c1ccc(C(=O)Nn2cnnc2)cc1
  12%, 1%
- CCc1nnc(NC(=O)CSc2ccc(-c3ccc(C)cc3)nn2)s1
  -26%, 4%
- CCOC(=O)Cc1csc(NC(=O)c2sc3nc4ccc(CC)cc4cc3c2N)n1
  -25%, 1%
- CCCSc1ccc(C(=O)Nc2ccc(Cl)cc2)cn1
  -26%, 5%
- NC(=O)Nc1ccc(C(=O)OCC(=O)c2c[nH]c3ccccc23)cc1
  -8%, /
- COc1ccc(N2C(=O)CC(SCc3ccc(Cl)cc3)C2=O)cc1 (stereo not given)
  10%, -6%
- Cc1ccc2ccc[n+](Cc3ccccc3)c2c1
  16µM*, -1%
- Cc1ccc(-c2c[n+](=O)c3c(n2[O-])CCC3)cc1
  9%, -17%
- CCC(C)(C)n1nnnc1C(c1ccncc1)N1CCC(Cc2ccccc2)CC1 (stereo not given)
  ?, -4%
- COc1ccc(/C=C/C(=O)Nc2nc(C)c(C(=O)N(C)C)s2)cc1
  13%, -7%
- CCCCNC(=O)c1ccc2c(c1)N(CC)C(=O)CS2
  -4%, 3%
- CC1CCCN(C(=O)CSc2nnc(-c3ccc(O)cc3)o2)C1 (stereo not given)
  ?, -3%
- c1ccc2nc3[nH]cnc3nc2c1
  -1%, 5%
- O=C(/C(C=Nc1cccc(C(F)(F)F)c1)=C(/O)c1ccco1)C(F)(F)F
  7%, 17%

Source: PubChem
